HSD17B inh = qHTS Assay for Inhibitors of HSD17B4, hydroxysteroid (17-beta) dehydrogenase 4; 3-hydroxyacyl-CoA dehydrogenase type-2 (Homo sapiens), Q99714; recombinant HSD17B10, NADH fluorescence kinetic; many of its hits are not listed in these tables; Potency, µM (top dose mostly 57.1 µM), inactives show top-dose activity change, negative = inhibition, most hits filed as inhibitors; 75,000 compounds, 7.6% hits; AID 893, 2007; active = well fitted inhibition curve with a large enough effect; inconclusive = small, poorly fitted or top-dose-only effect; inactive = no such curve, though single readings can be large or run the other way;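 note: the protocol describes HADH2 (HSD17B10) and not the HSD17B4 of the title; nearly all actives have a fitted effect of over 70% in size; most hits overshoot -100% by far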
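Enzyme plus compound, 15 min room temperature; substrate mix added (NAD+ 1 mM, beta-hydroxybutyryl-CoA 90 uM final); plates read kinetically for NADH fluorescence. HADH2 was His-tagged, E. coli-derived, 20 nM.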
* hit, by the source's call; [ ] = another dose, or the depositor's remark. % is set by controls: 0 for no effect and ±100 for the full control effect; potency is the fitted concentration of half-maximal effect. Only part of the results is shown; the hit share may differ from the screen's.

How did Cc1cc2oc(=O)cc(CN3CCC(C)CC3)c2c(C)c1Cl do in these assays?
HSD17B inh: -2.3%

How did CCN(CC)CCNC(=O)C1CCC(=O)N1CCc1ccccc1 (centres undefined) do in these assays?
HSD17B inh: -3.7%

Results for CCOC(=O)/C=C1\SCC(=O)N1CC(=O)Nc1ccc2c(c1)CCC2 ?
HSD17B inh: -6.2%

What do the screens show for `Cc1cc(Nc2ccccc2)n(-c2nc3ccccc3[nH]2)n1`?
HSD17B inh: -4.0%

Results for Cc1ccc(C(=O)OC2CCOC2=O)cc1NC(=O)c1ccco1 (centres undefined) ?
HSD17B inh: -8.3%

How did CCCCSc1nc2c(cnn2-c2ccc(F)cc2)c(=O)[nH]1 do in these assays?
HSD17B inh: 8.3%

What do the screens show for `CCN1C(=O)C2(C(C#N)=C(N)Oc3c2c(C)nn3-c2ccccc2)c2ccccc21` (centres undefined)?
HSD17B inh: -10.4%

Results for CC1CCN(C(=O)c2ccccc2NC(=O)c2cccc(S(=O)(=O)N3CCOCC3)c2)CC1 ?
HSD17B inh: 1.6%

How did COC(=O)c1ccc(Cn2cnc3c(cnn3-c3ccc(F)cc3)c2=O)o1 do in these assays?
HSD17B inh: -28.9%

Results for O=C(O)CCC(=O)N1CCc2cc(S(=O)(=O)N3CCCCC3)ccc21 ?
HSD17B inh: 17.7%

Reprinted at random: 3 records from the list
How did COC(=O)c1ccc(Cn2cnc3c(cnn3-c3ccc(F)cc3)c2=O)o1 do in these assays?
HSD17B inh: -28.9%

Results for Cc1ccc(C(=O)OC2CCOC2=O)cc1NC(=O)c1ccco1 (centres undefined) ?
HSD17B inh: -8.3%

How did Cc1cc2oc(=O)cc(CN3CCC(C)CC3)c2c(C)c1Cl do in these assays?
HSD17B inh: -2.3%

(continued)
Results for COc1ccc(OCC(=O)N2CCN(C(=O)c3cccs3)CC2)cc1 ?
HSD17B inh: 4.6%

How did N#Cc1ccc(Cn2c(=O)c(C#N)c3n(c2=O)CCC3)cc1 do in these assays?
HSD17B inh: 0.0%

What do the screens show for `Cc1c(C(=O)OC(C)C)[nH]c2c1C(=O)CC(C)(C)C2`?
HSD17B inh: -13.2%

What do the screens show for `O=C(Nc1ccc(F)cc1)c1ccc(S(=O)(=O)NCC2CCCO2)cc1` (centres undefined)?
HSD17B inh: 3.3%

How did O=C(Cn1nnc(-c2ccc(CN3CCOCC3)cc2)n1)NC1CCCCC1 do in these assays?
HSD17B inh: -1.1%

What do the screens show for `COc1ccc(COC(=O)N/N=C2/C[C@@H](O)[C@@H](O)[C@@H]3[C@@H]4C(=O)N(C(C)(C)C)C(=O)[C@H]4CC[C@@H]23)cc1`?
HSD17B inh: -4.5%[11.4 µM]

How did COc1ccc(CCNC(=O)CN(C2CCCCC2)S(C)(=O)=O)cc1 do in these assays?
HSD17B inh: -4.1%

Results for CCCOc1ccc(C(=O)N2CCCC2)cc1OC ?
HSD17B inh: 11.9%

What do the screens show for `COc1ccc(N(C)S(=O)(=O)c2c(C)[nH]c(=O)[nH]c2=O)c(OC)c1`?
HSD17B inh: 1.1%

How did CCC(C)c1ccc(NC(=O)C2CC2)cc1 (centres undefined) do in these assays?
HSD17B inh: -5.5%

How did CCc1ccc(NC(=O)CS(=O)CC(=O)Nc2ccc(F)cc2F)cc1 (centres undefined) do in these assays?
HSD17B inh: -6.1%

Results for COCC(=O)N1CCC2(CCCN(C(=O)Nc3cccc(F)c3)C2)CC1 ?
HSD17B inh: 5.3%

What do the screens show for `CCCNC(=O)Cn1cnc2sc(C(=O)N3CCCC(C(=O)OCC)C3)c(C)c2c1=O` (centres undefined)?
HSD17B inh: 0.6%

What do the screens show for `Brc1ccc(-c2nn3c(Cc4ccccc4)nnc3s2)o1`?
HSD17B inh: -0.5%

How did Nc1ccn([C@@H]2CC[C@H](CO)O2)c(=O)n1 do in these assays?
HSD17B inh: -0.1%[25.6 µM]

How did CC(C)Cn1c(N)c(C(=O)COC(=O)c2cc(C(F)(F)F)nc3c(C(F)(F)F)cccc23)c(=O)n(C)c1=O do in these assays?
HSD17B inh: -10.0%

How did COC(=O)Nc1ccc2c(c1)N(C(=O)CCN1CCN3CCCC3C1)c1ccccc1S2 (centres undefined) do in these assays?
HSD17B inh: 5.7%

How did COCC(C)NC(=O)c1ccc(Cl)c(Cl)c1 (centres undefined) do in these assays?
HSD17B inh: 20.4%

What do the screens show for `Cc1ccc(S(=O)(=O)NCCNC(=O)CN2CCCC2)cc1`?
HSD17B inh: 11.3%

Results for CSc1sc(C)cc1C1C(C#N)=C(N)N(c2cccnc2)C2=C1C(=O)CCC2 (centres undefined) ?
HSD17B inh: 15.8µM*

What do the screens show for `COc1ccc2c(c1)OC(O)(C(F)F)CC2=O` (centres undefined)?
HSD17B inh: -0.5%

How did Cc1ccc(-n2nnc3c(=O)n(CC(=O)NCc4ccco4)cnc32)cc1 do in these assays?
HSD17B inh: inconclusive

How did O=C(CC12CC3CC(C1)CC(CC(=O)NC1=NCCS1)(C3)C2)NC1=NCCS1 do in these assays?
HSD17B inh: inconclusive

What do the screens show for `OC(COCC1COc2ccccc2O1)CN1CCN(c2ccccn2)CC1` (centres undefined)?
HSD17B inh: -5.1%

How did Cc1cc(=O)oc2c1c(C)nn2-c1ccc(C(=O)OC(C)C)cc1 do in these assays?
HSD17B inh: 3.6%

What do the screens show for `O=C(NCCc1ccc(Cl)cc1)C1CCN(S(=O)(=O)N2CCCC2)CC1`?
HSD17B inh: 2.4%

What do the screens show for `CC(OC(=O)c1ccc2ccccc2n1)C(=O)Nc1ccc(N2CCOCC2)cc1` (centres undefined)?
HSD17B inh: 2.0%

What do the screens show for `CCOC(=O)N1CCC(NC(=O)c2cc(C(=O)Nc3ccc(OC)c(OC)c3)ccc2CO)CC1`?
HSD17B inh: 13.6%

Results for O=C(Nc1ccccc1C(F)(F)F)N1CCN(c2ccc3nnc(-c4ccc(F)cc4)n3n2)CC1 ?
HSD17B inh: -1.3%

What do the screens show for `Cc1ccc(C2C3=C(CCCC3=O)Nc3nc(SCC(=O)NCc4ccco4)[nH]c(=O)c32)cc1` (centres undefined)?
HSD17B inh: 20µM*

Molecules above containing a Cl atom, in the order listed:
How did Cc1cc2oc(=O)cc(CN3CCC(C)CC3)c2c(C)c1Cl do in these assays?
HSD17B inh: -2.3%

How did COCC(C)NC(=O)c1ccc(Cl)c(Cl)c1 (centres undefined) do in these assays?
HSD17B inh: 20.4%

What do the screens show for `O=C(NCCc1ccc(Cl)cc1)C1CCN(S(=O)(=O)N2CCCC2)CC1`?
HSD17B inh: 2.4%

The listing picks up; the two compounds before the break are reprinted first.
Results for O=C(Nc1ccccc1C(F)(F)F)N1CCN(c2ccc3nnc(-c4ccc(F)cc4)n3n2)CC1 ?
HSD17B inh: -1.3%

What do the screens show for `Cc1ccc(C2C3=C(CCCC3=O)Nc3nc(SCC(=O)NCc4ccco4)[nH]c(=O)c32)cc1` (centres undefined)?
HSD17B inh: 20µM*

Results for O=C(Nc1ccccc1C(=O)N1CCOCC1)C1CCC(=O)N1C1CCCC1 (centres undefined) ?
HSD17B inh: 13.8%

What do the screens show for `CCOC(=O)c1c(NC(=O)c2cccs2)sc2c1CCCC2`?
HSD17B inh: inconclusive

Results for CN(C)c1ccc(CN(C(=O)COc2ccccc2)C2CCS(=O)(=O)C2)cc1 (centres undefined) ?
HSD17B inh: -4.2%

Results for CC(C)CCn1c(Cl)nc2c1c(=O)n(C)c(=O)n2C ?
HSD17B inh: 0.8%

Results for Cc1cc(S(=O)(=O)N(Cc2ccc(F)cc2)CC2CCCO2)ccc1-n1cnnn1 (centres undefined) ?
HSD17B inh: -1.6%

How did O=C(OCC(=O)N1CCCC1)c1ccco1 do in these assays?
HSD17B inh: 7.1%

How did CCCCSC(=O)Nc1ccccc1 do in these assays?
HSD17B inh: 6.5%

How did CCC(C)[C@H](NC(=O)NCc1cccs1)C(=O)O (some centres undefined) do in these assays?
HSD17B inh: 9.0%

How did O=C(c1ccco1)N1CCN(S(=O)(=O)N2CCOCC2)CC1 do in these assays?
HSD17B inh: -8.8%

Results for COc1ccc2c(c1)CCc1c(-c3noc4c3CCc3cc(OC)ccc3-4)noc1-2 ?
HSD17B inh: 4.3%[11.4 µM]

Results for CC(=O)N1CCC2(CC1)C(C#N)=C(N)Oc1c2sc2nc(C)cc(C)c12 ?
HSD17B inh: -8.0%

How did CCn1cc(C(=O)NCc2ccccn2)c(=O)c2cc(S(=O)(=O)N3CCCCC3)ccc21 do in these assays?
HSD17B inh: -1.9%

How did CCN(CC)CCCC(C)NC(=O)c1ccc(-n2c(=O)c(=O)[nH]c3ccccc32)cc1 (centres undefined) do in these assays?
HSD17B inh: 2.0%

Results for COCC(=O)N1CCC2(CCCN(c3cccc(-c4ccccc4)c3)C2)CC1 ?
HSD17B inh: inconclusive

How did COC(=O)CNC(=O)COC(=O)C(Cc1ccccc1)NC(=O)c1ccco1 (centres undefined) do in these assays?
HSD17B inh: -12.1%

What do the screens show for `COc1ccc(Cc2nc(-c3ccc(-n4cccc4)cc3)no2)cc1`?
HSD17B inh: inconclusive

How did COc1cccc(-c2ccc3ncnc(NC4CCNCC4)c3c2)c1 do in these assays?
HSD17B inh: inconclusive

Results for Cc1nc(=O)c(-c2ccccc2)c(C)n1CC1CCCO1 (centres undefined) ?
HSD17B inh: 144.3%[activator]

How did CS(=O)(=O)N1CCCC(C(=O)NCCCN2CCOCC2)C1 (centres undefined) do in these assays?
HSD17B inh: 1.1%

Results for O=C(Nc1ccccc1)OCCNC(=O)c1ccccc1 ?
HSD17B inh: 3.0%

How did Cc1cnc(NC(=O)COc2ccccc2)s1 do in these assays?
HSD17B inh: -7.8%

How did CC(=O)c1ccc(OC2C=CC(C#Cc3ccc(Br)cc3)OC2CO)cc1 (centres undefined) do in these assays?
HSD17B inh: -9.0%[11.4 µM]

How did CC1(C)CC(=O)C(C=NCCCN2CCOCC2)=C(O)C1 do in these assays?
HSD17B inh: 5.1%

What do the screens show for `CCN1CCN(C(c2cc3cc4c(cc3[nH]c2=O)OCO4)c2nnnn2C(C)(C)CC)CC1` (centres undefined)?
HSD17B inh: 25.1µM*

Results for c1ccc(-n2ncc3c2ncn2c(C4CCCCC4)nnc32)cc1 ?
HSD17B inh: -2.8%

Results for O=C1Nc2ccccc2C(O)(C(=O)NCc2ccc3c(c2)OCO3)N1c1ccccc1 (centres undefined) ?
HSD17B inh: -1.3%

What do the screens show for `CCC(c1nnnn1Cc1ccco1)N(CCc1ccccc1)Cc1cc2ccc(OC)cc2[nH]c1=O` (centres undefined)?
HSD17B inh: -11.1%

What do the screens show for `COC(=O)CSc1nnc(CSc2nc(C)cc(C)n2)n1Cc1ccco1`?
HSD17B inh: 5.5%

Results for O=c1c2[nH]c3ccccc3c2ncn1CCC1=CCCCC1 ?
HSD17B inh: -11.4%

Results for COC(=O)C1=C(C)NC(C)=C(C(=O)OC)C1c1ccc(N(C)C)cc1 ?
HSD17B inh: -2.5%

What do the screens show for `CCOC(=O)c1c(NC(=O)Cc2cccs2)sc(C)c1C`?
HSD17B inh: -29.8%

How did COc1cccc(OCC(O)CN2CCN(CCO)CC2)c1 (centres undefined) do in these assays?
HSD17B inh: -1.1%

Results for CO/C([O-])=N/c1c[n+](-c2ccc(C)cc2)no1 ?
HSD17B inh: -24.2%

What do the screens show for `O=c1[nH]c(Cn2nnc(-c3ccccc3)n2)nc2scc(-c3ccccc3)c12`?
HSD17B inh: -21.8%

Results for CCCCCCNC(=O)Cc1nc2nc(C)cc(C)n2n1 ?
HSD17B inh: 3.7%

What do the screens show for `Cn1c(=O)n(C)c2cc(NS(C)(=O)=O)ccc21`?
HSD17B inh: 5.4%

How did COCC(=O)N(C)c1nnc(-c2cnccn2)s1 do in these assays?
HSD17B inh: inconclusive

Results for CCn1c(CC(=O)Nc2ccc(C)cc2)nnc1SCC(=O)N1CCN(c2ccccc2)CC1 ?
HSD17B inh: 7.4%

What do the screens show for `COc1ccc(CC(=O)n2nc(-c3ccccc3)nc2NCc2ccco2)cc1`?
HSD17B inh: 165.0%[activator]

Results for O=C(c1ccco1)N1CCN(CCCCN2C(=O)c3ccccc3C2=O)CC1 ?
HSD17B inh: 4.0%

Results for C=CCn1c(SCc2c(C)noc2C)nnc1C1COc2ccccc2O1 (centres undefined) ?
HSD17B inh: 1.9%

How did Cc1ccc(C)c(C(=O)CSc2n[nH]c(C(C)C)n2)c1 do in these assays?
HSD17B inh: -3.7%

What do the screens show for `COc1ccc(S(=O)(=O)CCC(=O)Nc2c(C)n(C)n(-c3ccccc3)c2=O)cc1`?
HSD17B inh: 9.1%

Results for COc1ccc(CCNC(=O)C2CCN(Cc3nc(-c4ccccc4C)oc3C)CC2)cc1OC ?
HSD17B inh: 8.5%

Results for CCC(c1nnc(SCc2nc3ccccc3s2)n1Cc1ccccc1)N(C)C (centres undefined) ?
HSD17B inh: -22.2%

How did O=C(O)/C=C\C(=O)Nc1ccc2c(c1)-c1ccccc1C2 do in these assays?
HSD17B inh: inconclusive

What do the screens show for `O=C(CN(Cc1ccco1)C(=O)Cn1nnc(-c2ccc(F)cc2)n1)NC1CCCC1`?
HSD17B inh: 8.2%

How did CC1CCc2nc(NC(=O)CN3CCN(c4ccccc4)CC3)sc2C1 (centres undefined) do in these assays?
HSD17B inh: 1.6%

What do the screens show for `CCOC(=O)Cc1nnc2c(Nc3ccc(C)cc3)nc3nonc3n12`?
HSD17B inh: -5.1%

Results for CCOC(=O)C1CCCN(C/C(O)=C(\C#N)c2nc(-c3ccccc3)cs2)C1 (centres undefined) ?
HSD17B inh: -0.1%

Results for COc1cc(-c2nnc(-c3cccnc3)o2)cc(OC)c1OC ?
HSD17B inh: -9.4%

What do the screens show for `O=C(Cc1ccccc1)Nc1ccccc1CO`?
HSD17B inh: 2.9%

How did CCOc1cc(NS(C)(=O)=O)c(OCC)cc1NC(=O)c1cccs1 do in these assays?
HSD17B inh: 3.1%

How did O=C(Cn1c(CN2CCCCC2)nc2ccccc2c1=O)NCc1ccco1 do in these assays?
HSD17B inh: -0.3%
